Source: PubChem (National Center for Advancing Translational Sciences (NCATS))
HPGD inh: inhibitors of human 15-hydroxyprostaglandin dehydrogenase (HPGD); Potency, µM, without a hit: at the highest dose activity change, negative = inhibition, hits mostly inhibitors; P15428; purified HPGD, NADH fluorescence kinetic, PGE2 substrate; 4.3% of 150,000 active; active = well fitted inhibition curve with a large enough effect (not every such curve was filed as active); inconclusive = small, poorly fitted or top-dose-only effect, or another doubt; inactive = no such curve, though single readings can be large or run the other way;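 also: top concentration of the series not given in the record; plate controls included wells without enzyme; inactives centre near -10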
Target sequence (P15428 whole entry, looked up): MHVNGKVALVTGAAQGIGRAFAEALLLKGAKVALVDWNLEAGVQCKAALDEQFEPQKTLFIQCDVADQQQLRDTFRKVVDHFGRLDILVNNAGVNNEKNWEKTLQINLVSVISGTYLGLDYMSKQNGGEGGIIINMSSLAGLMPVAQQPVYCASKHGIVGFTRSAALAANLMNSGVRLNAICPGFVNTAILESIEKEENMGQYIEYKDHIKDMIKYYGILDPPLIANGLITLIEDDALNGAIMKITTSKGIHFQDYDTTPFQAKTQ
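20 nM HPGD preincubated 15 min at room temperature with compound in 50 mM Tris-HCl pH 8, 0.01% Tween 20. Started with 1 mM NAD+ and 30 uM prostaglandin E2; NADH fluorescence (360/450 nm) read 5 times over 30-s intervals, last minus first.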
* = called active by the depositor; i = inactive; ? = inconclusive. % is scaled to controls: 0 for no effect and ±100 for the full control effect; potency is read from the fitted curve at half-maximal effect. Some of the compounds tested; the hit share may differ from the screen's.

| HPGD inh | Molecule |
| --- | --- |
| ? | Cc1cccc2sc(NC(=O)c3ccc(Cl)s3)nc12 |
| -15% | Cc1ccc(OCC(=O)Nc2ccc(S(=O)(=O)Nc3ccccn3)cc2)c(C)c1 |
| -12% | Cc1nn(CCc2n[nH]c(=S)n2C)c(C)c1Br |
| -23% | Cc1ccc(-c2cc(C(=O)Nc3nccs3)c3ccccc3n2)c(C)c1 |
| -9% | COc1cc(OC)cc(C(=O)Nc2ccc([N+](=O)[O-])cn2)c1 |
| -13% | COc1ccccc1-c1nc(NC(C)=O)n[nH]1 |
| -4% | O=C(Cn1c(Cc2ccccc2)nc2ccccc21)NCc1ccc2c(c1)OCO2 |
| -10% | CC1CN(c2nc3c(c(=O)n(C)c(=O)n3C)n2Cc2c(F)cccc2Cl)CC(C)O1 (configuration not stated) |
| -11% | Cc1ccc2[nH]c(=O)c(C3C(C#N)=C(N)Oc4c3ccc3cccnc43)cc2c1 (configuration not stated) |
| -3% | CS(=O)(=O)N(CC(=O)O)c1ccc(Oc2ccccc2)cc1 |
| -24% | CCN(CC(=O)Nc1ccc2c(c1)CCC2)Cc1nc2ccccc2c(=O)[nH]1 |
| -21% | CC(=O)Nc1ccc(OCC(O)Cn2c(C)nc3ccccc32)cc1 (configuration not stated) |
| -44% | Cc1nc(NCC2CCCO2)nc2c1C(=O)CC(C)(C)C2 (configuration not stated) |
| -11% | CCC1=NN(C(=O)Cc2ccc(OC)cc2)C(O)(C(F)(F)F)C1 (configuration not stated) |
| -8% | C=CCn1c(COc2ccccc2F)nnc1SCC(=O)Nc1cc2oc3ccccc3c2cc1OC |
| -15% | CCc1ccc(NC(=O)N(CCCN2CCOCC2)C(C)c2cc3cccc(OC)c3o2)cc1 (configuration not stated) |
| -19% | O=C(CSc1nnc(-c2ccco2)o1)NC(=O)Cc1ccccc1 |
| 25µM* | Cc1ccc(C(=O)NC2CCCCCC2)o1 |
| -19% | COc1cc(OC)c(NC(=O)c2cccc(F)c2)cc1Cl |
| -22% | Cc1cccc(NC(=O)c2ccc(C3SCC(=O)N3CCc3ccccc3)cc2)c1C (configuration not stated) |
| ? | CCOC(=O)c1nn(-c2ccc(OCC)cc2)c2nc(-c3ccco3)c(C#N)c(=O)n12 |
| -12% | O=[N+]([O-])c1cccc(Cl)c1Cl |
| -4% | CCOc1ccc(CSC2=NCCN2)cc1[N+](=O)[O-] |
| 25µM* | S=c1[nH]nc(COc2ccccc2)n1/N=C/C(Cl)=C/c1ccccc1 |
| -15% | Clc1ccc(Cc2ccc(Cl)nn2)c(Cl)c1 |

Given as labelled records: 4 of the compounds above.
> CCC1=NN(C(=O)Cc2ccc(OC)cc2)C(O)(C(F)(F)F)C1 (configuration not stated)
  HPGD inh: -11%
> C=CCn1c(COc2ccccc2F)nnc1SCC(=O)Nc1cc2oc3ccccc3c2cc1OC
  HPGD inh: -8%
> CCc1ccc(NC(=O)N(CCCN2CCOCC2)C(C)c2cc3cccc(OC)c3o2)cc1 (configuration not stated)
  HPGD inh: -15%
> O=C(CSc1nnc(-c2ccco2)o1)NC(=O)Cc1ccccc1
  HPGD inh: -19%

Next part.
| HPGD inh | Molecule |
| --- | --- |
| -18% | COc1ccc(NC(=O)[C@H](COCc2ccccc2)NC(=O)OC(C)(C)C)cc1 |
| ? | Cc1ccc(OCCN2C(=O)c3ccccc3C2=O)cc1 |
| -9% | O=C(Nc1ccccc1Oc1ccccc1)c1cccc([N+](=O)[O-])c1 |
| -17% | Cc1ccc(CSCCC(=O)NCCc2ccc(Cl)cc2)cc1 |
| 5% | COC(=O)C(C(=O)Nc1cc(C)on1)C1CCCCCC1 (configuration not stated) |
| -23% | O=C(CNc1ccccc1)N/N=C/c1cc([N+](=O)[O-])ccc1N1CCCC1 |
| -13% | C=C(C(=O)c1ccccc1)C(CC(=O)c1ccccc1)c1ccccc1 (configuration not stated) |
| -24% | O=C(NCc1ccco1)c1cnn2c(C(F)F)cc(-c3ccccc3)nc12 |
| -28% | CCOC(=O)N1CCC(NC(=O)CS(=O)Cc2nc(-c3ccc(OC)c(OC)c3)oc2C)CC1 (configuration not stated) |
| -19% | CCCCCC(=O)Nc1ccc(N2CCN(C(=O)c3ccccc3)CC2)cc1 |
| -14% | c1ccc2oc(SCc3nc4ccccc4s3)nc2c1 |
| -26% | O=C(Cn1cnc2c(nnn2-c2cccc(Cl)c2)c1=O)N1CCOCC1 |
| ? | COc1cccc2c1nc(C)c1cc(C)oc12 |
| -12% | O=C(O)c1ccccc1C(=O)N1CCN(c2ccccc2)CC1 |
| ? | COc1ccc(C(=O)Nc2oc(-c3ccccc3)c(-c3ccccc3)c2C#N)cc1 |
| -15% | COc1ccc(C(NC(=O)c2cccnc2)c2cc(Cl)c3cccnc3c2O)cc1OC (configuration not stated) |
| ? | COC(=O)CSCC(=O)Nc1cc2c(cc1C(C)=O)OCO2 |
| -10% | CC(C)N(Cc1nc(-c2ccccc2)no1)C(=O)c1ccc(Cl)cc1 |
| -22% | COc1cc(C2/C(=C(/O)c3ccc(F)cc3)C(=O)C(=O)N2CCCC(=O)O)ccc1O (configuration not stated) |
| -22% | CCC(=O)Nc1cccc(-c2nc3ccccc3o2)c1 |
| -24% | Cc1ccccc1CSc1nc2n(n1)C(c1cccs1)C1=C(CCCC1=O)N2 (configuration not stated) |
| i | N#C/C(=C/c1cn(-c2ccccc2)nc1-c1cccc(S(=O)(=O)N2CCOCC2)c1)C(=O)NCc1ccco1 |
| 18µM* | O=C(CCCCCN1C(=O)c2ccccc2C1=O)Nc1ccc(F)cc1 |
| -8% | CC(=O)Oc1c(C)cc(O)c2ccccc12 |
| -7% | CCOC(=O)c1ccc(NC(=O)C2=C(C)Nc3nc(CCCO)nn3C2c2ccc(OC)cc2)cc1 (configuration not stated) |
| -11% | COc1ccc(C2=NOC(C(=O)Nc3cc(C)on3)C2)cc1 (configuration not stated) |
| -18% | Cc1nc(C)c(CC(=O)N/N=C/c2ccc(O)cc2)c(=O)[nH]1 |
| ? | Cc1ccc(Cn2nnc3c(=O)[nH]c(C4CCN(C(=O)Cc5cccs5)CC4)nc32)cc1 |
| -3% | COc1cccc2[nH]c3c(N4CC(C)CC(C)C4)ncnc3c12 (configuration not stated) |
| -13% | O=C(Cc1ccccc1)NC(=S)Nc1ccc2oc(-c3ccccc3F)nc2c1 |
| -7% | CCCCCOC(=O)Nc1nnc(CCCCC)s1 |
| -5% | Cc1ccc(S(=O)(=O)Cn2nnnc2C(C)N2CCN(C(=O)c3ccco3)CC2)cc1 (configuration not stated) |
| -6% | COCc1nnc(NC(=O)CC(C)C)s1 |
| -4% | NC(=O)C(CC(=O)O)NC(=O)[C@@H]1CCOc2c(I)cc([N+](=O)[O-])cc2C(=O)N[C@@H](CO)C(=O)N[C@@H](Cc2ccc(O)cc2)C(=O)N1 (some centres not stated) |
| -3% | O=C(NCc1ccccc1)C(c1ccco1)N(C(=O)c1cnccn1)c1ccc(F)cc1 (configuration not stated) |
| -10% | CC(C)(O)C(=O)NN(C(=O)c1ccccc1)c1ccc2ccccc2c1 |
| -13% | CCCNC(=O)Cn1nc([N+](=O)[O-])c([N+](=O)[O-])c1C |
| -13% | COc1ccc(CCNC(=O)Cn2cnc3c(cnn3-c3ccccc3Cl)c2=O)cc1OC |
| -15% | CCN=C1SC(CC(=O)NCCc2ccc(OC)cc2)C(=O)N1CC (configuration not stated) |
| -5% | Cc1ccc(NS(=O)(=O)c2ccc(NC(=O)c3cccc(NC(=O)C(C)C)c3)cc2)cc1 |
| -10% | O=C(COC(=O)COc1ccccc1)Nc1ccccc1OC(F)F |
| 4% | Cc1cc(C)nc(SC2CCCCC2O)n1 (configuration not stated) |
| ? | CCOC(=O)c1[nH]c2cc3c(cc2c1NC(=O)CN1CCC(C)CC1)OCO3 |
| -11% | Nc1cc(=O)[nH]c(SCc2ccc(Cl)cc2)n1 |
| 3% | O=[N+]([O-])c1cccc(CSc2nnc(Cc3ccccc3)n2-c2ccc(F)cc2)c1 |
| -16% | COc1ccccc1Nc1nc(C)cs1 |
| ? | COc1cccc(C(=O)NC(=S)Nc2nnn(C)n2)c1 |
| -9% | COc1cc(/C=N/NC(N)=O)cc(Br)c1OCc1ccc(C)cc1 |
| -16% | Clc1c(CSc2nc3ccccc3o2)nc2sccn12 |
| -17% | Cc1ccc(OCCNC(=O)/C=C/c2ccc([N+](=O)[O-])cc2)cc1C |

Other entries follow:
| HPGD inh | Molecule |
| --- | --- |
| -9% | CSc1nc(Cc2ccc(Cl)cc2)nc2ccccc12 |
| -12% | CC(=O)Nc1sc2c(c1C#N)CCCCC2 |
| -8% | Cc1nc(NC(=O)COc2ccccc2)sc1C(=O)Nc1cccc(Cl)c1 |
| -15% | O=C(CSCc1cccc(Br)c1)N=Nc1c(O)[nH]c2ccccc12 |
| -7% | Cc1ccc(Cn2ccc(NC(=O)c3nn(C)cc3[N+](=O)[O-])n2)cc1 |
| -3% | Cn1c(CNC(=O)c2cccs2)nnc1SCC(=O)Nc1ccccc1 |
| ? | O=C(/C=C/c1ccc(Cl)c([N+](=O)[O-])c1)Nc1cccnc1 |
| -21% | Cc1ccc(Nc2nc(N)nc(CSc3nccn3C)n2)cc1 |
| -14% | N#CC1=C(N)N=C(SCc2cccc3ccccc23)C(C(N)=O)C12CCCCC2 (configuration not stated) |
| -5% | CCCc1nnc(NC(=O)C2CCCO2)s1 (configuration not stated) |
| -13% | COc1ccc(OCc2nnc(SC(C)C(=O)Nc3nccs3)n2-c2ccccc2)cc1 (configuration not stated) |
| ? | Cc1ccc(-c2csc3ncnc(Nc4ccc(N5CCOCC5)cc4)c23)cc1 |
| -12% | CS(=O)(=O)Nc1ccccc1Oc1ccccc1 |
| -18% | CCOc1cc(C2C3=C(CCCC3=O)N(C)C3=C2C(=O)CCC3)cc(Cl)c1O |
| -1% | O=C(NCCC1=CCCCC1)C(=O)NCC1OCCCN1S(=O)(=O)c1ccccc1 (configuration not stated) |
| ? | Cc1c(C(=O)Nc2ccc(-n3cnnn3)cc2)oc2ccccc12 |
| 22µM* | CC(C)NC(=O)c1cc2c(s1)CCCC2 |
| 10µM* | S=c1[nH]ncn1/N=C/c1cccc(Oc2ccccc2)c1 |
| -5% | O=C(CN(C(=O)CNC(=O)c1cccs1)c1ccc2c(c1)OCCO2)NC1CCCC1 |
| -27% | OC(c1ccccc1)c1cccnc1 (configuration not stated) |
| -8% | CC1CCN(CCCOc2ccc(OCc3ccccc3)cc2)CC1 |
| -10% | Cc1ccc(C(=O)N2CCc3ccccc32)o1 |
| 2% | CCCCC1=CC2=C(c3ccco3)C(=O)C(C)(OC(=O)c3ccc(OC)cc3)C(=O)C2=CN1CCOC (configuration not stated) |
| ? | COc1ccc(-c2cc(C(F)(F)F)nc(-n3cc(Br)cn3)n2)cc1 |
| 0% | CC(C)(C)N(NC(=O)c1ccccc1)C(=O)c1ccc(C(=O)N(NC(=O)c2ccccc2)C(C)(C)C)cc1 |
| 1% | COc1ccc([C@@H]2CC(=O)c3c(O)cc(O[C@H]4O[C@@H](CO[C@H]5O[C@@H](C)[C@@H](O)[C@@H](O)[C@@H]5O)[C@@H](O)[C@@H](O)[C@@H]4O)cc3O2)cc1O |
| ? | Cc1c(C#N)c(N)nc2c3c(sc12)NC(=O)CC3c1ccc(Cl)cc1 (configuration not stated) |
| -2% | CC(C)=CC(=O)NCc1c(Cl)cccc1-n1cccc1 |
| ? | COc1ccc2cc3c(N)nn(C(=O)C4CCC(C(C)(C)C)CC4)c3nc2c1 (configuration not stated) |
| -10% | COc1cc(CNC2CCCCCC2)cc(OC)c1 |
| -26% | CC(Oc1ccc(F)cc1)C(=O)/C=C\N(C)C (configuration not stated) |
| -4% | COc1ccc(CCn2nnnc2C(c2ccc(C)cc2)N2CCN(C)CC2)cc1OC (configuration not stated) |
| -5% | Cc1ccc(C(=O)NC(=S)Nc2ccc(-c3cc4ccccc4oc3=O)cc2)c(C)c1 |
| -5% | CC(C)n1nnnc1SCC(=O)NNC(=O)C1CCCCC1 |
| -15% | COc1ccc(-n2c(Cn3c(=O)sc4ccccc43)nnc2SCC(N)=O)cc1 |
| ? | CCCCCCNC(=O)c1cccc(-c2ccc(C)c3ccccc23)n1 |
| 28µM* | O=C(NCC1CCCO1)NC1CCCCC1 (configuration not stated) |
| -8% | CCOC(=O)c1cnc2ccc(C(=O)OC)cc2c1Nc1ccc2c(c1)OCCO2 |
| 16µM* | CCOc1ccc(/C=N/OCC(=O)NCc2cccs2)cc1 |
| -12% | CCOC(=O)c1ccc(-c2c(C)cc3oc(=O)cc(-c4ccccc4)c3c2C)cc1 |
| -7% | O=C(O)c1oc2ccccc2c1CN1CCN(c2ccccc2)CC1 |
| -8% | O=C(CSc1nc(C2CCCCC2)n(-c2ccccc2)n1)NCCN1C(=O)CSC1=O |
| -12% | CCOC(=O)C1CCCN(c2ncnc3c2cnn3-c2cccc(C)c2)C1 (configuration not stated) |
| -3% | Cc1cc(Sc2nc(NC(C)(C)C)nc(N3CCOCC3)n2)nc(Cl)n1 |
| -12% | NS(=O)(=O)c1ccc(Nc2nc(-c3ccccc3)cs2)cc1 |
| -14% | CCOc1ccccc1-n1c(SCC(N)=O)nnc1-c1ccco1 |
| -7% | CCOc1ccc(C(=O)Cc2cc(OC)c(OC)cc2[N+](=O)[O-])cc1 |
| -24% | CCCCNS(=O)(=O)c1ccc2nc(-c3cccnc3)cc(C(=O)NC(C)CC)c2c1 (configuration not stated) |
| -2% | CCN(Cc1ccncc1)C(=O)c1cccs1 |
| ? | O=c1oc2c(CN3CCCCC3)c(O)ccc2c2c1CCCC2 |
| -2% | C/C(Cl)=C\Cn1c(N2CCCC2)nc2c1c(=O)[nH]c(=O)n2C |

Pulled one by one from above (four):
| HPGD inh | Molecule |
| --- | --- |
| -4% | COc1ccc(CCn2nnnc2C(c2ccc(C)cc2)N2CCN(C)CC2)cc1OC (configuration not stated) |
| 16µM* | CCOc1ccc(/C=N/OCC(=O)NCc2cccs2)cc1 |
| -8% | CCOC(=O)c1cnc2ccc(C(=O)OC)cc2c1Nc1ccc2c(c1)OCCO2 |
| -10% | COc1cc(CNC2CCCCCC2)cc(OC)c1 |
